Screens: PubChem BioAssay, ICCB-Longwood Screening Facility, Harvard Medical School
HCMV NEC inh = inhibitors of HCMV UL50-UL53 interaction, biochemical, HTRF. AID 1918969, 2023. HCMV UL50-UL53 nuclear egress complex (human cytomegalovirus). normalized percent inhibition. actives 0.15% (n = 190,000). inhibition, % (concentration not given with the values);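 active = both replicates at 50% or more, plus weaker picks with an unusually low signal ratio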;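 also: stock transfer was 100 nL into about 20 µL; 0% = negative control wells and 100% = wells with untagged competitor protein; inactives centre near -12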
Sa growth inh = S. aureus growth inhibition at 42 and 30 °C, primary screen, LtaS inhibitor project, RN4220, two temperatures. OD600, 20 h, 42 °C; active compounds read low. relative growth, % (no concentration beside the values). actives 0.53% (n = 170,000). AID 720641, 2013;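 active = growth at 42 °C up to 50% and 20 or more points under that at 30 °C, or under 10% at both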;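 also: 300 nL library stock went into each well; scaled to the means of positive and negative controls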
GIV Gai3 FP = inhibitors of GIV peptide binding to Galpha-i3, primary screen, biochemical, fluorescence polarization, FITC-GIV GBA peptide, rat Galphai3; Guanine nucleotide-binding protein G(i) subunit alpha-3 (Rattus norvegicus), P08753; 90 min; active compounds read low; scaled: aluminum fluoride 0%, vehicle 100%; percent of control (FP), % (no concentration beside the values); actives 0.42% (n = 210,000); AID 1224905, 2016;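 active = replicate mean at 85% of control or lower, very high polarization wells dropped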;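 also: wells of about 15 µL received 100 nL stock; the first replicate is given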
Target sequence (P08753 whole entry, looked up): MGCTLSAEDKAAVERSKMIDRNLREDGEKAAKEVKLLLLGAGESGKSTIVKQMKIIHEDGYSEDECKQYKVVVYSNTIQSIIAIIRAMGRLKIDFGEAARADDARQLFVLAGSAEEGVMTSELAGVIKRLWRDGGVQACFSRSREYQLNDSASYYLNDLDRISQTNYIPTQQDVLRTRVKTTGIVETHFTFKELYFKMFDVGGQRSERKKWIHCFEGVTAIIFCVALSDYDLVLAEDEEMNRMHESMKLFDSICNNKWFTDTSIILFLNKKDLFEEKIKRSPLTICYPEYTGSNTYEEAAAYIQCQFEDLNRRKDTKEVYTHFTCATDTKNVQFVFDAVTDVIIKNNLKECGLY
Sa growth inh second temp = recorded beside Sa growth inh, whose call it bears; relative growth, %; measured here: growth at 30 °C;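 optical density after 20 h as mean of two plates; 100% = untreated growth and lower means inhibition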
An asterisk follows results filed as active; . = no result given; & = joins results of further samples.

SMILES	HCMV NEC inh	Sa growth inh	Sa growth inh second temp	GIV Gai3 FP
Cc1csc(NC(=O)C(F)(F)F)c1C#N	-17	68	32	101
COc1ccc(/C=C2/SC(=O)N(CCC(=O)Nc3ccccc3)C2=O)cc1OC	-20	.	.	103
COc1ccc(-n2nc(C(=O)N(C)C3CCCCC3)c3ccccc3c2=O)c(OC)c1	5	105	88	.
Cc1cc(=O)[nH]c(S)c1C#N	-18	107	85	.
C=CCNC(=O)c1cc(=O)c2ccccc2o1	.	83	80	98
O=C1C(c2ccc(F)cc2)N(CCc2ccccc2)C(=O)CN1C1CCCCCC1 (stereo not given)	.	110	92	101
COc1cccc(-c2nnc3n(Cc4ccc(C)cc4)c(=O)c4ccccc4n23)c1O	-10	123	92	102
Cc1nc(N(C)C)cc(N2CCN(C(=O)c3ccc(C(C)(C)C)cc3)CC2)n1	-32	.	.	102
N#CCn1cc(/C=C2\C(=O)NC(=O)N(c3cccc(F)c3)C2=O)c2ccccc21	.	79	77	104
CCc1cccc(NC(=O)c2nc(-c3ccncc3)no2)c1	15	84	92	103
CCc1ccc(NC(=O)c2cnn3c(C(F)F)cc(C)nc23)cc1	5	101	103	106
Cc1ccc(C(=O)Oc2cccc3[nH]ccc23)cc1	-11	95	89	103

Three compounds out of the list above, sorted by the number in GIV Gai3 FP, high to low:
SMILES	Sa growth inh second temp	GIV Gai3 FP
COc1cccc(-c2nnc3n(Cc4ccc(C)cc4)c(=O)c4ccccc4n23)c1O	92	102
O=C1C(c2ccc(F)cc2)N(CCc2ccccc2)C(=O)CN1C1CCCCCC1 (stereo not given)	92	101
C=CCNC(=O)c1cc(=O)c2ccccc2o1	80	98

Later entries
SMILES	HCMV NEC inh	Sa growth inh	Sa growth inh second temp	GIV Gai3 FP
CCOC(=O)c1cc(-c2ccc(C)cc2)n(CC(=O)NC2CCCCCC2)c1C	-40	93	88	102
Cc1cc(C)n(-c2nc(C)c(C(=O)N(C)CCO)s2)n1	-5	.	.	103
O=C(O)/C=C\C(=O)Nc1nn[nH]n1	-14	94	102	101
COc1ccc(N2C(=O)/C(=C\c3ccco3)N=C2SCC(=O)c2c(N)n(C)c(=O)n(C)c2=O)cc1Cl	-26	92	87	.
COc1ccc(NCc2cc3cc4c(cc3n(CC(=O)Nc3cc(C)ccc3C)c2=O)OCCO4)cc1	.	97	86	103
CCn1c(COC(=O)CCc2c(C)nc3ncnn3c2C)nc2cc(S(=O)(=O)N(C)C)ccc21	-24	87	91	.
Cc1cc(C)n2nc(CNS(=O)(=O)c3ccc(F)cc3)nc2n1	11	99	99	104
Cc1cccc(-c2nc3scc(CCNS(=O)(=O)c4ccc(F)cc4C)n3n2)c1	.	111	88	105
CC(=O)Nc1ncc2c(n1)CC(c1ccc(N(C)C)cc1)CC2=O (stereo not given)	-20	.	.	94
Cc1ccc(C2=NNC3(S2)C(=O)Nc2ccccc23)cc1 (stereo not given)	-68	74	23	.
COc1cc(/C=C2\SC(=S)N(CCC(=O)Nc3sc4c(c3C(N)=O)CCCC4)C2=O)cc(OC)c1OC	-3	.	.	108
CCCCN(C)C(=O)C1c2ccccc2C(=O)N(C)C1c1ccc(OC)cc1 (stereo not given)	.	123	88	91
CCOC(=O)c1ccc(N2C(=O)C=C(C)C2=O)cc1	-9	67	84	105
O=S(=O)(Cc1cccc(C(F)(F)F)c1)Cc1cccc(C(F)(F)F)c1	-21	90	89	97
O=C(c1cccs1)C(NS(=O)(=O)c1ccccc1)NS(=O)(=O)c1ccccc1	-14	91	82	97
COc1cccc(CNC(=O)c2sc3nc[nH]c(=O)c3c2C)c1	.	101	94	102
COc1ccc(NC(=O)CCNS(=O)(=O)c2ccc3c(c2)CCCC(=O)N3)cc1Cl	.	115	99	108
COc1cc(OC)c(Nc2ncnc3onc(-c4cccc(Cl)c4)c23)cc1Cl	-17	102	93	104
COc1ccc2c3c1O[C@H]1C[C@@H](O)C=C[C@@]31CCN(C)C2	-34&-33&3&-30	89&89&87	93&80&91	97
Cc1ccc(NC(=O)CN2C(=O)CC(c3ccc(C)c(C)c3)=Nc3ccccc32)cc1	.	83	93	97
CSc1nc(N)nc(-c2ccc(C(F)(F)F)cc2)n1	-6	116	93	106
CCCC12CN3CC(CCC)(CN(C1)C3C(O)C(O)C(O)C(O)CO)C2=O (stereo not given)	-25	93	87	106
COc1ccccc1Oc1ccc2c(c1)C(=O)N(c1cccc(O)c1)C2=O	-43	99	73	107
CCN(CC)S(=O)(=O)c1ccc2c(c1)c(=O)c(C(=O)N1CCN(c3ccccc3OC)CC1)cn2C	-14	110	89	105

Record cards, as listed above. Screens in order: HCMV NEC inh	Sa growth inh	Sa growth inh second temp	GIV Gai3 FP
COc1cc(OC)c(Nc2ncnc3onc(-c4cccc(Cl)c4)c23)cc1Cl is entered as -17	102	93	104
CSc1nc(N)nc(-c2ccc(C(F)(F)F)cc2)n1 is entered as -6	116	93	106
COc1cccc(CNC(=O)c2sc3nc[nH]c(=O)c3c2C)c1 is entered as .	101	94	102
O=S(=O)(Cc1cccc(C(F)(F)F)c1)Cc1cccc(C(F)(F)F)c1 is entered as -21	90	89	97

Additional structures
SMILES	HCMV NEC inh	Sa growth inh	Sa growth inh second temp	GIV Gai3 FP
CC1=C(C(=O)OC(C)C)C(c2ccccc2F)C(C#N)=C(N)O1 (stereo not given)	22	88	80	105
CCCCc1c(O)nc(SC)[nH]c1=O	-11	102	82	97
NC(=O)c1ccc2nc(N)sc2c1	4	90	87	104
Cc1ccc(NC(=O)c2oc3ccccc3c2NC(=O)C2CCCCC2)cc1	5	94	86	112
COc1cc(/C=c2\sc3n(c2=NCCO)C(c2ccccc2)C(c2ccccc2)=NN=3)ccc1O (stereo not given)	-28	75	90	.
CC(C)(C(=O)Nc1ccccc1)N(Cc1ccccc1)C(=O)c1ccccc1	-27	100	88	.
Cc1ccc2c(c1)c1c3n2CCN=C3CCC1	-49	93	53	109
COc1ccccc1-n1ccn2c(=O)[nH]nc2c1=O	-39	.	.	102
Cc1cc(C)c(NC(=O)CSc2ccnc(=O)[nH]2)c(C)c1	.	118	85	102
CS(=O)(=O)NCCSCc1ccccc1	-8	97	101	103
Oc1ccccc1C1=Nc2ccccc2N=C(c2cccc(F)c2)C1	10	.	.	108&91
Oc1ccccc1/C=N/n1c2ccccc2c2ccccc21	.	107	83	99
CCc1ccc(NC(=O)NCCCn2c(-c3ccncc3)nc3cccnc32)cc1	20	.	.	104
[O-]/[N+](=C\c1cccs1)c1ccc(Cl)cc1	-94	83	76	108
CC1=C(C(=O)OC(C)C)C(c2ccccc2)NC(=S)N1 (stereo not given)	.	107	86	100
CCNc1nc(OCC)nc(N2CCC(Cc3ccccc3)CC2)n1	.	113	90	98
COc1ccc(N2C(=O)CC(Sc3nc4c(cc3C#N)CCCC4)C2=O)cc1 (stereo not given)	-22	.	.	104
COc1ccc(CNC(=O)COC(=O)C2COc3ccccc3O2)cc1 (stereo not given)	-28	83	85	.
Cc1cccc(N(CC(=O)Nc2c(C)n(C)n(-c3ccccc3)c2=O)S(C)(=O)=O)c1	-14	97	96	99
Cc1ccc(NC(=O)Cn2ccn(-c3ccccc3)c(=O)c2=O)cc1	-23	116	94	100
COc1ccc(-n2nc(C(=O)N3CCN(c4cccc(C)c4)C(C)C3)c3c4ccccc4n(C)c3c2=O)cc1Cl (stereo not given)	-8	99	95	100
CS(=O)(=O)c1ncc(Cl)c(C(=O)Nc2c(C(=O)c3ccc(Cl)cc3)oc3ccccc23)n1	7	101	92	108
O=C(NCCO)C(c1ccccc1)c1ccccc1	2	102	117	97
COc1cccc(/C=[N+](/C)[O-])c1OCc1ccccc1	-14	.	.	102
O=C(Nc1ccccc1)Nc1ccc2ncccc2c1	-3	75	81	106
COc1ccc(C2C(C(=O)NCCCN3CCCCCC3)CCC(=O)N2c2ccc(OC)cc2)cc1 (stereo not given)	.	107	87	106
CCOC(=O)C1CCN(c2cc3c(cc2NC(=O)c2ccccc2)n(C)c(=O)n3C)CC1	-11	100	84	105
CCCCN(C)c1ncnc2c1cnn2-c1cccc(Cl)c1	.	114	91	98
CSc1ccccc1NC(=O)c1cnn2c(C(F)(F)F)cc(-c3ccco3)nc12	.	100	82	105
O=C(Cn1ncc(Cl)c(Cl)c1=O)NCCc1ccc(F)cc1	-42	93	91	.
CCOC(=O)c1c(C)oc2cc(Br)c(OCc3cccc(Cl)c3)cc12	-21	.	.	100
CC(C)(C)C(=O)Nc1ccc(Cl)c(-c2nc3ccccc3[nH]2)c1	-17	111	78	99
O=c1c(S(=O)(=O)c2ccccc2)cn(Cc2cccc(F)c2)c2cc(N3CCOCC3)c(F)cc12	.	108	90	103
CNS(=O)(=O)c1ccc(C(=O)NCC(=O)O)cc1	-33	103	101	.
O=S1(=O)C[C@H](NC2CCCCC2)[C@@H](S(=O)(=O)c2ccc(F)cc2)C1	2	.	.	105
Nc1cccc(-c2nc3ccccc3o2)c1	-7	100	80	.
CCN(CC)CCNC(=O)CN1C(=O)COc2ccc(S(=O)(=O)N3CCOCC3)cc21	-8	102	96	106
Cc1cc2n(n1)CCCN2Cc1ccc(C(=O)NCc2ccccc2Cl)cc1	0	.	.	104
CCN(CC)S(=O)(=O)c1ccc(-n2nnc(-c3ccc(C)cc3)n2)nc1	-14	109	92	.
COc1cccc2sc(N(CCCN(C)C)C(=O)c3ccccc3Cl)nc12	-9	.	.	111
Cc1ccc(N(Cc2nc3nc(C)cc(C)n3n2)S(=O)(=O)c2ccc(Cl)cc2)cc1	-22	.	.	98
CC(C)C(=O)NCCCc1nc2ccccc2n1C(C)c1ccccc1 (stereo not given)	-2	.	.	103
Cc1cccc(N2CC(C(=O)NC3CCCCCC3)CC2=O)c1C (stereo not given)	16	114	100	.
O=C(NC(=O)N1CCCCC1)c1ccc(-c2csnn2)cc1	-10	110	97	103
O=C(Cn1cncn1)N/N=C/c1ccccc1OC(F)F	-27	80	90	.
CCc1ccc(S(=O)(=O)c2nnn3c2nc(N2CCCC(C)C2)c2cc(Cl)ccc23)cc1 (stereo not given)	-7	78	91	99
CCCCCS(=O)(=O)N1C(=O)CSC1=Nc1ccccc1	-18	91	78	99
COc1ccccc1N1CCN(S(=O)(=O)c2cc(C)c(F)c(C)c2)CC1	1	110	97	105

Some of the entries above in a different format:
smiles | HCMV NEC inh | Sa growth inh | Sa growth inh second temp | GIV Gai3 FP
CC(C)C(=O)NCCCc1nc2ccccc2n1C(C)c1ccccc1 (stereo not given) | -2 | . | . | 103
Cc1cccc(N2CC(C(=O)NC3CCCCCC3)CC2=O)c1C (stereo not given) | 16 | 114 | 100 | .
O=C(NC(=O)N1CCCCC1)c1ccc(-c2csnn2)cc1 | -10 | 110 | 97 | 103
O=C(Cn1cncn1)N/N=C/c1ccccc1OC(F)F | -27 | 80 | 90 | .
CCc1ccc(S(=O)(=O)c2nnn3c2nc(N2CCCC(C)C2)c2cc(Cl)ccc23)cc1 (stereo not given) | -7 | 78 | 91 | 99
CCCCCS(=O)(=O)N1C(=O)CSC1=Nc1ccccc1 | -18 | 91 | 78 | 99
COc1ccccc1N1CCN(S(=O)(=O)c2cc(C)c(F)c(C)c2)CC1 | 1 | 110 | 97 | 105

Further results
SMILES	HCMV NEC inh	Sa growth inh	Sa growth inh second temp	GIV Gai3 FP
COc1ccc(CCNC(=O)Cn2cc(C(=O)c3ccc(F)cc3)c(=O)c3ccc(C)nc32)cc1OC	.	94	99	120
Cc1ccnc(N=C2c3ccccc3CN2c2cc(C)ccn2)c1	-1	112	97	103
CCOC(=O)c1ccc(NC2=CC(c3ccc(O)c(OCC)c3)N(c3ccc(C(=O)OCC)cc3)C2=O)cc1 (stereo not given)	-4	87	87	103
COc1ccc(-c2ccc(CNCCCSc3nnnn3C)o2)cc1Cl	-45	108	80	108
CC(=O)Nc1ccc(C(=O)N2CCOCC2)cc1	4	102	76	105
O=C(c1ccco1)N1CCN(Cc2ccc3c(c2)OCO3)CC1	.	102	82	103
COc1ccccc1-c1nc2c(c(SCc3cccc(Cl)c3)n1)Cc1c(CO)cnc(C)c1O2	.	136	101	104
Cc1noc(C)c1S(=O)(=O)N(CC(=O)O)c1ccc2c(c1)OCO2	0	108	84	.
Cc1sc(-c2ccno2)cc1S(=O)(=O)N1CCCCCC1	-10	.	.	111
COc1cc(-c2nnc(CN3C(=O)C4CC=CCC4C3=O)o2)cc(OC)c1OC (stereo not given)	-6	91	97	.
CC1CCN(C(c2ccc(F)cc2)c2sc3ncnn3c2O)CC1 (stereo not given)	-21	107	87	101
O=c1oc2cc(O)ccc2c2c1CCCCC2	-50	92	65	.
